# Assay outcomes from PubChem BioAssay.
# HCMV UL50-53 inh – disrupts HCMV UL50-UL53 complex binding | HTRF UL50-UL53 interaction, normalized percent inhibition | inhibition, % (no concentration beside the values) | 0.15% of 190,000 active;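 active = both replicates at 50% or more, plus weaker picks with an unusually low signal ratio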;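 also: stock transfer was 100 nL into about 20 µL; 0% = negative control wells and 100% = wells with untagged competitor protein; inactives centre near -12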
# Sa growth 42C – blocks Staphylococcus aureus growth. S. aureus RN4220 growth, OD600, 20 h, 42 °C; hits give low values. relative growth, % (concentration not given with the values). 0.53% of 170,000 active;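 active = growth at 42 °C up to 50% and 20 or more points under that at 30 °C, or under 10% at both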;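 also: 300 nL library stock went into each well; scaled to the means of positive and negative controls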
# GIV-Gai inh – GIV-Galpha-i interaction inhibition; Galpha-i3/FITC-GIV peptide fluorescence polarization, 90 min; hits give low values; scaled: aluminum fluoride 0%, vehicle 100%; AID 1224905; percent of control (FP), % (test concentration not listed); 0.42% of 210,000 active;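 active = replicate mean at 85% of control or lower, very high polarization wells dropped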;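 also: wells of about 15 µL received 100 nL stock; the first replicate is given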
# Target sequence (P08753 whole entry, looked up): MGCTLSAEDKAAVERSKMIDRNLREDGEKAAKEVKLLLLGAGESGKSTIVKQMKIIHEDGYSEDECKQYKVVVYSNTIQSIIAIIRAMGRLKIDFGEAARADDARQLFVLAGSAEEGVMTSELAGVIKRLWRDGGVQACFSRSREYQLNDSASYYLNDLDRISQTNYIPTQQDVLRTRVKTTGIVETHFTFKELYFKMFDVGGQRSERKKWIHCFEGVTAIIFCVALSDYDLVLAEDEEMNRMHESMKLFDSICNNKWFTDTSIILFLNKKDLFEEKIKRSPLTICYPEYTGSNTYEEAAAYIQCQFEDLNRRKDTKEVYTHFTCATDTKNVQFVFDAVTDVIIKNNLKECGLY
# Sa growth 42C second temp – recorded beside Sa growth 42C, whose call it bears; relative growth, %; measured here: growth at 30 °C;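 optical density after 20 h as mean of two plates; 100% = untreated growth and lower means inhibition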
# * marks the source's active call; other numbers are inactive results; / = not tested or not shown; & = joins results of further samples. Rows are unselected; any-hit rate near 0.83%.
SMILES,HCMV UL50-53 inh,Sa growth 42C,Sa growth 42C second temp,GIV-Gai inh
Cc1nn2c3c(cnc2c1-c1ccccc1)C(=O)CC(/C=C/c1ccccc1)C3 (configuration not stated),-4.0,/,/,98.5
Cc1ccc(Cn2c(C)c3cnn(CC(=O)N4CCN(c5cc(C)ccc5C)CC4)c(=O)c3c2C)cc1,3.6,98.2,100.9,106.0
Cc1cc(N2CCC(C)CC2)nc2ccc(NC(=O)CCC(=O)N3CCC(Cc4ccccc4)CC3)cc12,-21.2,/,/,106.0
O=C(CSC(=S)N1CCOCC1)c1c[nH]c2ccccc12,/,90.9,83.7,103.6
O=c1c2ccccc2c2ccccc2c(=O)n1-c1ccccc1,/,89.5,84.2,102.3
CC(C)CC(=O)Nc1ccc(N2CCN(C(=O)c3cccs3)CC2)cc1,1.9,106.4,95.3,/
CCOc1ncccc1C(=O)N1CCN(c2cccc(OC)c2)CC1,-39.4,63.8,84.7,/
Cc1cc(C)cc(NS(=O)(=O)c2ccc3[nH]cc(C(=O)NCc4ccco4)c(=O)c3c2)c1,-21.5,106.4,73.5,107.0
Cc1ccc(NC(=O)C2C3C=CC4(O3)C2C(=O)N(CCCN2CCOCC2)C4C(=O)NC2CCCC(C)C2C)cc1Cl (configuration not stated),-16.6,104.7,75.2,101.1
O=S(=O)(c1ccccc1)N1CCC2(CC1)Nc1cc(F)ccc1-n1cccc12,16.9,/,/,101.0
COc1cccc(NC(=O)Cn2c(-c3cncs3)nc3ccccc32)c1,-0.9,105.8,84.6,/
C#CCOc1ccc2c(c1)c(C(=O)OCC)c(C)n2-c1ccc(N(C)C)cc1,-4.0,91.9,80.1,109.0
CCN(CC)C(=O)Cn1c(=O)c2ccccc2n2c(=S)sc(-c3cccc(F)c3)c12,-38.1,/,/,118.7
COc1ccc(-c2c(C(=O)O)oc(=O)c3ccccc23)cc1,-39.8,105.3,100.0,95.9
NC(=O)Cn1nc2sc3ccccc3n2c(=O)c1=O,-26.3,93.8,87.6,100.3
Cc1ccc(NC(=O)N2Cc3cccn3-c3ccccc32)c(Cl)c1,-20.5,/,/,95.9
CN(C)S(=O)(=O)c1ccc2c(c1)N(CC(=O)N1CCc3ccccc3C1)C(=O)C1CCCCN21 (configuration not stated),-8.7,/,/,98.6
CCOC(=O)c1c(-c2ccccc2)oc2ccc(OC(=O)c3ccc(OC)c(OC)c3)cc12,-10.5,/,/,101.2
COc1ccc(CCn2c(=S)[nH]c3cc(C(F)(F)F)ccc32)cc1OC,-27.2,69.8,44.9,100.9
Cc1c(Br)c(C(F)(F)F)nn1CC(=O)Nn1c(C2CCCCC2)nc2ccccc2c1=O,-5.4,/,/,98.4
Cc1c(-c2cccc(NC(=O)Cc3ccccc3)c2)nc2ncccn12,/,99.7,84.5,103.5
Cc1ccc(OCC(=O)Nc2ccc(S(=O)(=O)N3CCOCC3)cc2)c(C)c1,-2.6,88.3,65.7,103.6
CC(C)CC(=O)Nc1nnc(SCc2cc(=O)n3ccccc3n2)s1,/,102.0,85.9,105.1
Cc1nn(Cc2c(Cl)cccc2Cl)c(C)c1NC(=O)c1noc2c1CC(C(C)(C)C)CC2 (configuration not stated),/,97.6,95.2,103.0
O=C(NCc1cccs1)c1cc2c(s1)-c1ccccc1OC2,/,118.9,97.2,104.4

# Brought forward from above: 3 compounds, then new ones.
SMILES,HCMV UL50-53 inh,Sa growth 42C,Sa growth 42C second temp,GIV-Gai inh
CC(C)CC(=O)Nc1nnc(SCc2cc(=O)n3ccccc3n2)s1,/,102.0,85.9,105.1
Cc1nn(Cc2c(Cl)cccc2Cl)c(C)c1NC(=O)c1noc2c1CC(C(C)(C)C)CC2 (configuration not stated),/,97.6,95.2,103.0
O=C(NCc1cccs1)c1cc2c(s1)-c1ccccc1OC2,/,118.9,97.2,104.4
Cc1cccc(NC(=O)c2cc3ccccc3o2)c1,-8.0,71.4,64.6,98.5
Cc1ccc2oc(-c3ccc(C(C)(C)C)cc3)nc2c1,-6.0,87.2,83.3,109.6
O=C1CCCc2[nH]c(-c3ccccc3)nc21,-34.5,109.5,84.2,105.6
Nc1ccccc1C(=O)NC12CC3CC(CC(C3)C1)C2,-8.7,117.2,101.3,102.9
COc1ccc(-c2c(C)nn3c4c(cnc23)C(=O)CC(c2ccc(C)cc2)C4)cc1 (configuration not stated),14.8&-15.9,93.9,103.8,109.5&95.5
O=C(NC1CC1)C1CCN(c2cc(-c3ccccc3)ncn2)CC1,-37.5,/,/,100.1
COc1ccc(S(=O)(=O)NNc2ncnc3sc4c(c23)CCCC4)cc1,-1.4,101.7,48.0,100.2
CCN(CC)C(=O)CN1C(=O)C2CCC(=O)CC2C1=O (configuration not stated),-14.4,/,/,96.4
Cc1ccc(NC(=O)CSc2nc3ccc(NC(=O)COc4ccc(C)cc4)cc3s2)cc1,-26.7,94.3,86.1,96.9
Cc1ccnc(NS(=O)(=O)c2ccc(N3C(=O)Nc4ccccc4N3O)cc2)c1,/,110.6,87.7,105.2
CCN(CC)c1ccc(/C=C2/SC(=O)NC2=O)cc1,-43.6,117.0,82.3,182.4
O=C(CSc1nc2c(c(=O)[nH]1)CCC2)Nc1cc(C(F)(F)F)ccc1Cl,-20.7,109.1,85.3,102.4
COc1cccc(Cn2c(=O)n(Cc3ccco3)c(=O)c3oc4ccccc4c32)c1,/,105.1,103.6,100.4
NCCCN1CCCCC1,-25.9,97.5,81.4,99.6
CCOC(=O)c1oc2ccc(Br)cc2c1COC(=O)Cn1c(=O)oc2ccccc21,2.5,94.0,85.0,/
COc1cccc(NC(=O)COc2ccccc2F)c1,-32.6,93.3,70.3,/
O=C1CN(O)C=C2N=c3ccccc3=C2N1c1ccccc1,-10.1,97.7,95.9,107.9
COc1cc(Cl)c(C)cc1NC(=O)c1sc2nc3n(c(=O)c2c1C)CCCCC3,-7.2,127.6,92.1,96.5
O=C(O)c1ccc(-c2nn[nH]n2)cc1,-6.2,86.5,93.9,97.8
CC(=O)Oc1ccc2c(=O)oc(-c3ccccc3)nc2c1,1.1,90.1,84.2,104.0
CN(C)c1nc(N2CCOCC2)nc(N(c2ccccc2)c2ccccc2)n1,-12.7,/,/,100.0
CN(C)C(=S)NC1CCCCC1,-6.3,88.2,93.8,/
COc1cc(NC(=O)c2c(C)oc3ncnc(N4CCCCC4)c23)cc(OC)c1,/,112.3,103.2,103.9
CCc1ccc(-n2c(SCc3ccccc3F)nc3[nH]ncc3c2=O)cc1,/,67.2,63.9,100.9
COc1ccc(NC(=O)c2oc3c(c2C)-c2nn(Cc4c(F)cccc4Cl)cc2CC3)c(OC)c1,3.4,88.9,94.6,104.2

# 4 structures from above, sorted by length of the SMILES, lowest first.
SMILES,HCMV UL50-53 inh,Sa growth 42C,Sa growth 42C second temp,GIV-Gai inh
CN(C)C(=S)NC1CCCCC1,-6.3,88.2,93.8,/
Nc1ccccc1C(=O)NC12CC3CC(CC(C3)C1)C2,-8.7,117.2,101.3,102.9
CN(C)c1nc(N2CCOCC2)nc(N(c2ccccc2)c2ccccc2)n1,-12.7,/,/,100.0
COc1cc(Cl)c(C)cc1NC(=O)c1sc2nc3n(c(=O)c2c1C)CCCCC3,-7.2,127.6,92.1,96.5

# Next part.
SMILES,HCMV UL50-53 inh,Sa growth 42C,Sa growth 42C second temp,GIV-Gai inh
COc1ccc(C2c3c(n(C)c4ccccc34)C(=O)N2CC(=O)NCc2ccccc2)cc1 (configuration not stated),-4.0,/,/,101.0
Cc1cc(Br)cc(C)c1OCC(=O)Nc1ccc(S(=O)(=O)Nc2ncccn2)cc1,-22.6,72.3,71.3,101.9
O=C(O)c1ccccc1C(=O)Nc1ccc(Br)c2cccnc12,-69.0,111.5,75.7,102.0
Cc1cccc(NC2=NS(=O)(=O)c3ccccc3N2)c1,/,88.7,83.2,104.1
COc1ccc(NC(=O)c2cnc(Nc3ccc(C)c(Cl)c3)c3ccccc23)c(OC)c1,-28.2,87.4,89.6,108.7
CC(=O)Oc1c(C)c(C)c2oc(=O)ccc2c1C,-12.5,114.5,68.6,98.8
Nc1nc(-c2cccnc2)nc2c1c(=O)oc1ccccc12,5.7,104.0,92.7,/
CC(C)(C)C1CCc2c(sc3c2C(=O)NC(c2ccco2)N3)C1 (configuration not stated),-6.3,79.1,80.8,/
CSc1nc(C)c(CCC(=O)OCC(N)=O)c(C)n1,-5.3,82.1,93.6,/
Cc1cc(C(F)(F)F)nn1CC(=O)O,/,90.9,91.3,102.4
Clc1ccc(OCc2nnc3sc(-c4ccc5ccccc5n4)nn23)cc1,-16.9,/,/,112.8
O=C(CSCc1c(Cl)cccc1Cl)N1CCOCC1,-2.2,110.5,95.8,102.7
COc1cc(/C=C2\SC(=S)N(NC(=O)c3ccc(Br)cc3)C2=O)cc(OC)c1OC,-5.4,/,/,107.1
CCOC(=O)/C=C1\SCC(=O)N1Cc1ccc(C(=O)OC)cc1,-22.9,100.7,93.6,/
Cc1cccc(NC(=O)NC2COc3ccccc3C2)c1C (configuration not stated),/,80.2,85.9,97.0
Cc1cccc(C(=O)N2CCC(N3CCN(Cc4ccc(F)cc4)C(=O)C3=O)CC2)c1,/,84.3,89.0,104.7
N#Cc1cc2ccc(Br)cc2cc1C#N,-17.9,110.0,128.2,93.0
Cc1ccc(Cl)cc1N1CCN(CCNC(=O)Nc2ccccc2Cl)CC1,-1.2,108.7,99.5,102.6
CC(=O)Nc1ccc(NC(=O)C2(c3cccs3)CCOCC2)cc1,/,89.2,99.6,109.9
O=C1CC(n2nc(C(O)c3ccccc3)n(-c3ccccc3)c2=S)C2COC1O2 (configuration not stated),-3.4,103.1,86.7,/
COc1ccc(-c2cc(C(=O)Nc3ccccc3C(N)=O)c3ccccc3n2)cc1OC,-5.6,/,/,106.3
COc1ccc(-c2cc(C(=O)Nc3cccc(C)c3)nn2C2CCS(=O)(=O)C2)cc1 (configuration not stated),-10.4,/,/,103.4
CC(c1ccccc1)n1c(SC(F)F)nc2ccccc2c1=O (configuration not stated),9.6,98.4,101.0,/
Oc1ccccc1C=Nc1ccccc1O,-24.7,110.2,29.2,/
Cc1nn(C)c(C)c1S(=O)(=O)N(CC(=O)N1CCN(c2ccccc2)CC1)c1ccc(C(C)C)cc1,-14.5,93.8,95.9,105.5
SMILES,HCMV UL50-53 inh,Sa growth 42C,Sa growth 42C second temp,GIV-Gai inh
COc1ccc(Cl)cc1NC(=O)CN(C)S(=O)(=O)c1ccc(Br)s1,-6.7,96.3,89.6,102.8
NC1=NC(c2cccc(Cl)c2)n2c(nc3ccccc32)N1 (configuration not stated),-10.5,101.3,95.0,102.8
NC(=O)CCN1CCn2c1nc1ccccc12,-10.1,88.6,81.0,/
NS(=O)(=O)c1ccc(CNS(=O)(=O)c2ccccc2)cc1,-27.5,93.1,80.1,107.7
CCCNC(=O)CN1CCN(c2cc3ccccc3c(Cl)n2)CC1,-62.6,82.7,94.6,/
S=C1CCc2ccccc2N1Cc1ccccc1,-29.6,79.8,82.9,102.5
O=C(CCCc1c[nH]c2ccccc12)NCc1ccccc1C(F)(F)F,/,101.1,78.6,99.5
CCN(CC)Cc1ccc(C(=O)O)cc1,-10.0,90.6,93.6,99.0
CCN1CCCC1CNC(=O)c1nnc(Cc2cccc(F)c2)o1 (configuration not stated),/,98.2,90.8,102.0
C#CCOc1ccc(C2C(C(=O)OC)=C(C)NC3=C2C(=O)c2ccccc23)cc1OCC (configuration not stated),-3.3,114.4,103.3,108.2
CCOc1ccc(NC(=O)CN2C(=O)C3(SCC(=O)N3c3ccc(F)cc3)c3ccccc32)cc1 (configuration not stated),/,105.6,82.4,102.4
O=C(Nc1ccc(F)c(Cl)c1)Nc1nc(-c2ccccc2)cs1,-28.7,/,/,95.0
CCCc1cc(NC(=O)COC(=O)c2ccc(O)cc2O)n(-c2ccccc2)n1,-36.1,82.9,77.2,/
Cc1ccc(CNC(=O)CCCN2C(=O)CCn3nc(-c4cn(C)c5ccccc45)cc32)cc1,/,69.7,69.7,103.8
CS(=O)(=O)NCCc1ccc(C(=O)O)cc1,-26.2,84.9,89.4,/
COc1ccc(-n2cnnn2)cc1,-21.1,112.4,84.8,100.1
CN1CCN(S(=O)(=O)C2CCS(=O)(=O)C2)CC1 (configuration not stated),-9.5,/,/,100.7
COc1cccc(N/C=C/C(=O)c2cccs2)c1,-56.3,99.8,95.5,113.8
Cc1cc(Nc2cccc(Cl)c2)nc2ccc(NC(=O)c3ccc(=O)[nH]c3)cc12,-10.2,104.5,64.9,103.1&112.3
O=C(CCc1nc(-c2cccnc2)no1)Nc1ccccc1Cl,22.7,/,/,109.6
C=C(C)c1nc2ccccc2c(=O)o1,-1.9,100.2,82.4,99.1
CC1Cc2ccccc2N1C(=O)c1ccc2c(c1)nnn2C (configuration not stated),15.2,93.7,83.5,97.9
CC(C)n1c2ccccc2c2nnc(SCC(=O)N3CCCCC3)nc21,-17.2,103.0,82.8,/
CCOC(=O)c1cc(-c2ccccc2)n(CCC(=O)NCCc2ccc(OC)c(OC)c2)c1C,/,95.2,87.2,99.0
Nc1nc2ccccc2n1CCOc1ccc2ccccc2c1,-19.4,82.2,43.4,100.7
Cc1cc(F)ccc1NS(=O)(=O)c1c(C)nc2scc(C)n2c1=O,4.2,106.0,96.5,109.5
C=CCn1c2nc3ccccc3nc2c2c(=O)n(Cc3ccc4c(c3)OCO4)cnc21,-12.6,102.3,93.9,/
CCNc1nc(OC(C(F)(F)F)C(F)(F)F)nc(N(c2ccccc2)c2ccccc2)n1,-4.9,108.3,90.2,/
CCOC(=O)C1CCCN(C(=O)C2CCN(c3nnc(C)c4c(C)n(-c5ccccc5)nc34)CC2)C1 (configuration not stated),/,106.2,103.1,110.9
